# NPYLR7 ag = mosquito NPYLR7 agonism | HEK293T NPYLR7/Galpha15, GCaMP6s calcium fluorescence | activation, % at 10 µM | 270,000 tested, 0.15% active; in the data active means activation above about 40%;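 further: 0% = vehicle and 100% = reference agonist at the receptor; some compounds past the cut are filed as inactive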
# NPYLR7 ag max-min = second read-out of NPYLR7 ag, no call of its own (marks repeat the call); activation, %; measured here: Max-Min RFU normalised activation; some inactives read as strong as hits;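 span of the calcium signal over five minutes; 0% = vehicle and 100% = native peptide agonist; compound fluorescence can raise it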
# * = called active by the depositor; i = inactive; & = joins results of further samples.
canonical_smiles | NPYLR7 ag | NPYLR7 ag max-min
COc1ccc(C2CC(=O)NCCN2Cc2cnc[nH]2)cc1 (stereo not given) | 12 | 2
CC(=O)Nc1cccc(NC(=O)c2cccc(C)n2)c1C | 0 | 0
O=C1CN(C(=O)c2ccc(OC3CCCC3)cc2)c2ccncc2N1 | 4 | i
CCc1nc(N2CCC(N3CCCC(C(=O)N4CCCC4)C3)CC2)ncc1C (stereo not given) | -3 | -5
C=C(C)CSc1nc2c(c(=O)[nH]c(=O)n2C)n1CCCc1ccccc1 | 32 | 20
Cc1ccc2c(c1)OCCN2S(=O)(=O)N(C)C(C)C1CC1 (stereo not given) | 12 | 9
COc1cc2c(c(OC)c1OC)CCN(CCn1cncn1)CC2 | 3 | 1
CC(C)Cc1noc(CN(CCO)CCN2CCOCC2)n1 | 3 | 1
CCOc1ccc(-n2c(SCC(=O)c3ccc4c(c3)NC(=O)CO4)nnc2-c2ccccc2)cc1 | 1 | 0
CCCCCCCC(=O)Nc1c(-c2cc(F)ccc2F)nc2ccccn12 | -8 | -5
CC(C)N(Cc1cccc(N2CCN(S(=O)(=O)c3c(Cl)cccc3Cl)CC2)c1F)S(C)(=O)=O | 2 | 7
COc1ccc(OC)c(S(=O)(=O)Nc2cc(Cl)ccc2OC)c1 | 2 | 2
COc1ccccc1C(=O)N1CCN(c2nccc(-c3ccc(Oc4ccccc4)cc3)n2)CC1 | 8 | 2
Nc1c(C(=O)N2CCOCC2)sc2nc(-c3cccs3)c3c(c12)CCCC3 | -4 | -6
COc1ccc(-n2nnc3c(=O)n(Cc4ccc(Cl)cc4)cnc32)cc1 | 6 | 5
Cc1cccc(Cc2ccc3ncc(-c4cccs4)n3n2)c1 | -5 | -7
O=C(Cn1cc2ccccc2n1)NC1CCCN(c2nc3ccccc3s2)C1 (stereo not given) | 14 | 1
CCOc1ccccc1/C=C1N=C(/C=C/c2ccccc2)OC/1=O | -1 | -4
CCN(CC)c1ccc(CNc2nnnn2CC)cc1 | -1 | -2
CN(Cc1nc2ccccc2n1C(F)F)C(=O)CCS(=O)(=O)C1CCCC1 | -4 | -5
O=C(c1coc(Br)c1)N1CCCCC1 | 11 | 6
O=C(CSc1nc2c(-c3ccccc3)c[nH]c2c(=O)n1C1CC1)Nc1ccccc1 | -2 | -7
N#C/C(C(=O)NCc1ccccc1)=C1/N=C(NC(=O)c2cccnc2)c2ccccc21 | -1 | -2
O=c1cc(CSc2nnc3n2CCCCC3)nc2ccc(Br)cn12 | 9 | 7
COc1ccc(C(=O)Nc2c3c(nn2C(C)(C)C)CSC3)cc1OC | -2 | -2
CN(C)c1ccc(NC(=O)c2cccs2)cc1CN(CC1CC1)C(=O)c1ccccc1Cl | -18 | -14
O=C(O)CC(c1ccc(F)cc1)c1c[nH]c2ncc(Br)cc12 (stereo not given) | 5 | 3
COc1ccc2cc(C(=O)Nc3cccc(C)c3)c(=N)oc2c1 | -5 | -11
O=C(CN1C(=O)C2CCCN2C1=O)c1ccc2c(c1)CCCC2 (stereo not given) | 10 | 22
O=C(NCCc1cn[nH]c1)C1CCC(=O)N(CCCc2ccccc2)C1 (stereo not given) | -4 | -6
CCOc1ccc(C2C(C(=O)OC)=C(C)NC3=C2C(=O)CCC3)cc1OC (stereo not given) | -7 | -11
CCc1ccccc1C1c2cccn2CCCN1Cc1cccc(OC)c1 (stereo not given) | 25 | 30
CC(=NNC(=O)Cc1cccn1C)c1ccco1 | 7 | 7
C=CCCOC(=O)N1CC(=O)N(Cc2c(OC)cccc2OC)CC(O)C1 (stereo not given) | 7 | 16
Cc1[nH]n(-c2ccc([N+](=O)[O-])cc2)c(=O)c1N=Nc1nccs1 | -13 | -16
O=c1[nH]nnn1-c1ccccc1 | -4 | -5
COc1ccc(N2CCn3c2nc2c3c(=O)n(C)c(=O)n2C)c(OC)c1 | -6 | -9
CCC(COC)Nc1nc(-c2cccnc2)nc2c1CCN(C(C)=O)C2 (stereo not given) | 6 | 5
CC1ON=C(c2cnccn2)N(Cc2ccc(F)cc2)C1=O (stereo not given) | 1 | 0
Cc1cc(C)n(-c2cc(N3CCN(C(=O)Cc4ccc(F)cc4)CC3)ncn2)n1 | -3 | -8
O=C(NC1CCCC1)c1ccccc1CS(=O)(=O)c1ccccc1 | 3 | 0
COCCN(CC(=O)N(Cc1ccc(F)cc1)Cc1ccc(C)s1)C(=O)C(C)C | -3 | -3
O=C(NCCC(c1ccccc1)c1ccccc1)c1cc(-c2ccccc2F)nn1-c1ccc(Cl)cc1 | -2 | 9
CCCC(NC(=O)c1c(C)noc1C)c1cccs1 (stereo not given) | -4 | -2
CN1CCN(c2c(S(=O)(=O)c3ccc(Cl)cc3)cnc3cc4c(cc23)OCCO4)CC1 | 8 | 7
CCN(CCn1cccn1)C(=O)c1cc(COc2cccc3cnccc23)on1 | 10 | 15
Cc1ccccc1C(=O)N1CCOC(Cc2ccccc2)C1 (stereo not given) | -1 | 3
O=C(CCN1CCOCC1)N1CCC2(CCNCC2)CC1 | 7 | 5
Cn1c(O)c(C=Nc2sc3c(c2C#N)CCC3)c(=O)n(C)c1=O | 2 | 1
O=C(c1cccs1)N1CCN(Cc2nc(CCc3ccccc3)no2)CC1 | 2 | -4
COc1ccc(N2CCN(S(=O)(=O)c3ccc(C)cc3)C(C)C2=O)c(OC)c1 (stereo not given) | 10 | 7
COCCN(C(=O)Nc1ccc([N+](=O)[O-])cc1)C(C)c1nc2ccccc2c(=O)n1-c1ccc(C)c(C)c1 (stereo not given) | -7 | 3
O=C(NC1CC1)c1ccc(Nc2c(Oc3ccccc3)cnn(Cc3ccccc3)c2=O)cc1 | -3 | 3
CCOc1cc(/C=C2\C(=O)NC(=O)N(c3ccc(Br)cc3)C2=O)ccc1O | -4 | -8
Fc1cccc(Cl)c1Cc1noc(/C=C/c2ccccc2Cl)n1 | -10 | -13
COc1ccc(C(NC(=O)C2CCN(CCOc3ccc(Cl)cc3)CC2)c2cccs2)cc1 (stereo not given) | 6 | -4
CCC(=O)Nc1ccc(C(=O)n2ccc(C)n2)cc1 | -3 | -6
CCOc1ccccc1C(=O)Nn1cnc2c(cnn2C(C)(C)C)c1=O | 0 | 0
CCNC(=O)N(CCN1CCOCC1)Cc1nccn1Cc1ccccc1F | 20 | 19
COC(=O)Cn1c(=O)c2c(nc3n2CCN3c2ccc(C)c(C)c2)n(C)c1=O | 9 | 6

# A draw from above in order of molecular weight, low to high:
canonical_smiles | NPYLR7 ag | NPYLR7 ag max-min
CC(=NNC(=O)Cc1cccn1C)c1ccco1 | 7 | 7
O=C(c1coc(Br)c1)N1CCCCC1 | 11 | 6
CC(=O)Nc1cccc(NC(=O)c2cccc(C)n2)c1C | 0 | 0
Cc1ccccc1C(=O)N1CCOC(Cc2ccccc2)C1 (stereo not given) | -1 | 3
COc1ccc2cc(C(=O)Nc3cccc(C)c3)c(=N)oc2c1 | -5 | -11
Cc1ccc2c(c1)OCCN2S(=O)(=O)N(C)C(C)C1CC1 (stereo not given) | 12 | 9
O=C(CN1C(=O)C2CCCN2C1=O)c1ccc2c(c1)CCCC2 (stereo not given) | 10 | 22
COc1cc2c(c(OC)c1OC)CCN(CCn1cncn1)CC2 | 3 | 1
Fc1cccc(Cl)c1Cc1noc(/C=C/c2ccccc2Cl)n1 | -10 | -13
O=C(NCCc1cn[nH]c1)C1CCC(=O)N(CCCc2ccccc2)C1 (stereo not given) | -4 | -6
CCC(COC)Nc1nc(-c2cccnc2)nc2c1CCN(C(C)=O)C2 (stereo not given) | 6 | 5
CCCCCCCC(=O)Nc1c(-c2cc(F)ccc2F)nc2ccccn12 | -8 | -5
C=CCCOC(=O)N1CC(=O)N(Cc2c(OC)cccc2OC)CC(O)C1 (stereo not given) | 7 | 16
O=C(c1cccs1)N1CCN(Cc2nc(CCc3ccccc3)no2)CC1 | 2 | -4
CCN(CCn1cccn1)C(=O)c1cc(COc2cccc3cnccc23)on1 | 10 | 15
Cc1cc(C)n(-c2cc(N3CCN(C(=O)Cc4ccc(F)cc4)CC3)ncn2)n1 | -3 | -8
CN1CCN(c2c(S(=O)(=O)c3ccc(Cl)cc3)cnc3cc4c(cc23)OCCO4)CC1 | 8 | 7
CCOc1ccc(-n2c(SCC(=O)c3ccc4c(c3)NC(=O)CO4)nnc2-c2ccccc2)cc1 | 1 | 0

# Additional entries.
canonical_smiles | NPYLR7 ag | NPYLR7 ag max-min
CCn1nc(CC(C)C)cc1C(=O)N1CCCN(C)C2(CCN(C)CC2)C1 | 3 | 2
CC(C)CC(=O)N(Cc1csc(COc2cccc3ccccc23)n1)C1CC1 | 22 | 23
O=C(NCc1cccs1)c1cccnc1N1CCN(C(=O)c2ccc(-c3ccc(F)c(F)c3)s2)CC1 | 2 | 3
Cc1nc(C(C)C)sc1C(=O)N(C)Cc1nncn1C(C)C | 2 | -3
CN1C(=O)c2cccc3c(Br)cc(Br)c1c23 | 10 | 6
O=C(c1ccccc1F)N1CCN(Cc2cc(=O)c(OCc3ccc(F)cc3)co2)CC1 | 25 | 7
COc1c2occc2cc2ccc(=O)oc12 | -4&0&-5 | -9&-5&-5
Cc1cccc(-c2noc(N3CCOCC3)c2CN(Cc2ccc(F)cc2)C(=O)c2cccs2)c1 | 9 | 13
COc1ccc(S(=O)(=O)Nc2ccc(N(C)C)c(CN(C(=O)c3ccco3)C3CCCCC3)c2)cc1 | 6 | 7
CCc1cccc2c(C(CC(=O)NC3CCN(Cc4ccccc4)CC3)c3cccc(F)c3)c[nH]c12 (stereo not given) | 16 | 20
CC(=O)Nc1n[nH]c(C2CCCC2)c1-c1ccc2c(c1)OCO2 | -2 | -12
COCCOc1ccccc1-n1c(C)c(C)n2c3c(=O)n(C)c(=O)n(C)c3nc12 | 1 | -2
O=C(CCC1CCN(C(=O)c2ccc3[nH]ccc3c2)CC1)NCc1ccc(F)cc1 | 4 | 2
CCc1ccc(CNC(=O)CCC(=O)NC2CCCCCCC2)nc1 | -2 | -5
COCC(=O)Nc1ccc(C2SCC(=O)N2c2ccccc2C(C)C)cc1 (stereo not given) | -3 | 9
Cc1nnc(CN(C)C(=O)c2cn(Cc3ccccc3C(F)(F)F)nn2)o1 | 2 | 1
COc1cccc(Cn2c(=O)c(C(=O)NC3CC3)nn(-c3ccc(OC)c(OC)c3)c2=O)c1 | -6 | -5
O=C(Nc1cccc(Cl)c1)N1CCCC(OCc2cccc(OC(F)(F)F)c2)C1 (stereo not given) | 2 | 12
N#Cc1ccsc1NC(=O)CC1(CC(=O)O)CCCC1 | 1 | 2
COC(=O)c1ccc(Cl)cc1NC(=O)Nc1ccc(F)cc1F | -12 | -15
Cn1c(CCC(=O)N2CCC3(CCCO3)CC2)nc2cccnc21 | 9 | 5
CC(C)CCN(Cc1cccn1C)CC(O)COCc1ccccc1 (stereo not given) | 10 | 24
O=C(CCc1nnc(Cc2ccc(-c3ccccc3)cc2)o1)N1CCc2ccccc2C1 | 12 | 1
CC1(C(=O)NCC2CCCCC2)CCN1C(=O)Cc1ccc(-c2ccccc2)cc1 (stereo not given) | 4 | 1
O=C(O)c1cc(-c2cccs2)nn1-c1ccccc1Cl | 14 | 16
C(=Nn1c(-c2ccco2)csc1=Nc1cccnc1)c1ccccn1 | 1 | -1
CC1CC(=O)N(CCOc2ccc(Cl)cc2)c2ccccc2N1 (stereo not given) | 1 | 1
Cc1cc(C#N)ccc1S(=O)(=O)Nc1c(C)nn(C)c1Oc1cccnc1 | 6 | -4
CCOC(=O)N(C)c1c(CC)nc2c(OCc3ccccc3)cccn12 | -13 | -4
O=C(NC(N1CCOCC1)C(Cl)(Cl)Cl)c1c(Cl)cccc1Cl (stereo not given) | 2 | -1
Cc1ccc(CC(=O)N2CCN(C(=O)NC(C)C)CC2)cc1 | 9 | 6
Cc1cc(C)n(C2CCN(C(=O)c3cn4c(n3)CNCC4)C2)n1 (stereo not given) | 4 | -4
CCOC(=O)C(C)Sc1nnc(NC(=O)c2ccc(C(F)(F)F)cc2)s1 (stereo not given) | 5 | 5
CCCCC(=O)Nc1oc2c(C)cccc2c(=O)c1-c1ccc2c(c1)OCO2 | 0 | -1
CCc1nc2n(n1)C(=O)C(C(c1ccc(Br)cc1)N1CCCCC1)S2 (stereo not given) | 7 | 6
CC(C)c1ccc2[nH]c(O)c(N=NCc3cc(F)ccc3F)c2c1 | 11 | 12
COc1cc(OC)c(OC)cc1C=CC(=O)N1CCCC1c1ccccc1 (stereo not given) | -1 | 22
Cn1cc(S(=O)(=O)NCc2ccc(Cl)cc2)c(=O)n(C)c1=O | -1 | -2
COc1cc(CN2CCN(Cc3[nH]c4ccccc4c3C)CC2CCO)cc(OC)c1 (stereo not given) | 10 | 3
Cc1ccc(C(=C2C3C=CC2C2C(=O)NC(=O)C32)c2ccc(C)cc2)cc1 (stereo not given) | -3 | -4
COCc1nn2c3c(cnc2c1-c1ccc(OC)cc1)C(=O)CC(C)(C)C3 | 2 | 38
COc1ccc(-c2cc(=O)c3cc(C)ccc3o2)cc1 | 0 | -5
CCOC(=O)c1c[nH]c2c(F)cc(F)cc2c1=O | 13 | 6
CCc1cccc(C)c1NC(=O)CN1CCS(=O)C(C)C1C (stereo not given) | -21 | -23
Cc1cccc(C(=O)NCC(=O)N2CCN(c3cccc(C)c3C)CC2)c1 | -1 | -1
Cc1nc(CSc2nnc(Cc3c(C)[nH]c(=O)[nH]c3=O)o2)cs1 | 4 | 2
CN(c1ccc(C(=O)NCC2(CCO)CCOC2)cc1)C1CCCCC1 (stereo not given) | 5 | 1
COc1ccc(OC)c(NC(=O)C2(C)CCN2Cc2ccc(-n3ccnc3)cc2)c1 (stereo not given) | -5 | -10
Cc1nccn1CCC1CCCCN1C(=O)c1cc(Cl)c[nH]c1=O (stereo not given) | 1 | 3
O=C(C=Cc1c(Cl)cccc1Cl)N1CCCC1c1nc2ccccc2[nH]1 (stereo not given) | 1 | -1
CCOc1ccccc1C(=O)NCC(=O)N1CCC(C)CC1 | 6 | 3
Cc1ncsc1CCC(=O)NCc1csc(N2CCCC2)n1 | -6 | -10
COc1cccc(CN(CCC(C)C)CC(O)COC(C)(C)C)c1 (stereo not given) | 9 | 25

# Screens from PubChem BioAssay.

# A portion of the library, so the mix of outcomes need not match the whole.
